Compound activity deposited in PubChem by Broad Institute.
ID4 SMM: ID4 (human) binding; calls only; AID 624137; P47928; small molecule microarray, Flag-ID4 binding, fluorescence F/B; 1.2% of 31,000 active;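 active means spot signal over background at p below 0.07 in all four prints; compounds were printed on slides so no solution concentration is given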;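 further: a binder raises fluorescence above local background on the spot; about 2 pmol printed per array spot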
Target sequence (P47928 whole entry, looked up): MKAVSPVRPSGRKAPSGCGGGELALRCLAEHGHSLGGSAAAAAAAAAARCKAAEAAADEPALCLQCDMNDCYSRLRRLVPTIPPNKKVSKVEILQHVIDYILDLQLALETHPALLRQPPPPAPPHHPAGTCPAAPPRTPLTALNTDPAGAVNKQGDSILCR
Calls only; i = inactive; + = active, no number. These rows are one share of the data; the hit share may differ from the screen's.

no. | SMILES | ID4 SMM
1 | CNC[C@@H]1Oc2ncc(C3=CCCC3)cc2C(=O)N([C@H](C)CO)C[C@@H]1C | i
2 | Cc1ccc(-c2cnc3c(c2)C(=O)N([C@H](C)CO)C[C@@H](C)[C@H](CN(C)S(C)(=O)=O)O3)cc1 | i
3 | COc1ccc(-c2cnc3c(c2)C(=O)N([C@H](C)CO)C[C@@H](C)[C@H](CN(C)Cc2cccnc2)O3)cc1 | i
4 | COc1ccc(OCC(=O)Nc2cc(OC)ccc2NC(=O)c2ccco2)cc1 | i
5 | CCCC#Cc1ccc2c(c1)O[C@@H](CN(C)C(=O)CC1CC1)[C@H](C)CN([C@H](C)CO)S2(=O)=O | i
6 | O=C(NCC[C@H]1CC[C@H](NC(=O)C2CC2)[C@H](CO)O1)c1cc(Cl)cc(Cl)c1 | i
7 | COC(=O)CCN(C(=O)c1cccc(OC(C)=O)c1)c1ccccn1 | i
8 | CCC(=O)N(C)C[C@@H]1Oc2ncc(C3=CCCC3)cc2C(=O)N([C@H](C)CO)C[C@@H]1C | i
9 | CC(=O)N(C)C[C@H]1OCc2ccccc2-c2c(n(C)c3ccccc23)C(=O)N([C@H](C)CO)C[C@@H]1C | i
10 | C/C=C/c1ccc2c(c1)O[C@H](CN(C)Cc1ccccc1F)[C@@H](C)CN([C@H](C)CO)S2(=O)=O | i
11 | O=C(C[C@@H]1C=C[C@@H](NC(=O)c2ccc(F)cc2)[C@H](CO)O1)NCCc1ccccc1 | i
12 | COc1cccc(NC(=O)N[C@H]2C=C[C@@H](CC(=O)NCc3ccncn3)O[C@@H]2CO)c1 | i
13 | CCc1ccccc1NC(=O)Cn1cnc2scc(-c3ccc(OC)cc3)c2c1=O | i
14 | Cc1nc(SCC(=O)Nc2ccc([N+](=O)[O-])cc2)[nH]c(=O)c1C | i
15 | COc1cccc(-c2cnc3c(c2)C(=O)N([C@H](C)CO)C[C@H](C)[C@@H](CN(C)Cc2ccncc2)O3)c1 | i
16 | COc1cccc(NC(=O)CNC(=O)c2ccco2)c1 | i
17 | CC(=O)Nc1ccc(NC(=O)CN(C)S(=O)(=O)c2ccc3ccccc3c2)cc1 | i
18 | Cc1cc(C)c(C#N)c(SCC(=O)c2cc3ccccc3oc2=O)n1 | i
19 | COc1cccc(NC(=O)N(C)C[C@H]2Oc3ncc(C#Cc4ccc(F)cc4)cc3C(=O)N([C@H](C)CO)C[C@@H]2C)c1 | i
20 | Cc1ccc(F)cc1NC(=O)CCCSc1nc(-c2ccco2)cc(C(F)(F)F)n1 | i
21 | COc1ccc(Cl)cc1NC(=O)CSc1nc2sccc2c(=O)[nH]1 | i
22 | O=C(CSc1n[nH]c(-c2ccc(Cl)cc2Cl)n1)Nc1ccccc1F | i
23 | CCC(=O)N(C)C[C@H]1Oc2ncc(-c3ccccc3F)cc2C(=O)N([C@H](C)CO)C[C@@H]1C | i
24 | Cc1ccc(N(C(C)C(=O)Nc2cccc(C(F)(F)F)c2)S(C)(=O)=O)cc1C (stereo not drawn) | i
25 | COc1ccc(C)cc1NC(=O)c1ccc(OCC(=O)Nc2cc(Cl)ccc2Cl)cc1 | i
26 | C[C@@H]1CN([C@H](C)CO)S(=O)(=O)c2ccc(-c3cccc(C#N)c3)cc2O[C@H]1CN(C)C(=O)c1ccccc1 | i
27 | COC(=O)c1c(NC(=S)NCc2ccco2)sc2c1CCC2 | i
28 | c1ccc(-c2n[nH]c3c2oc2ccccc23)cc1 | i
29 | Cn1c(SCC(=O)Nc2ccc(Cl)cc2)nnc1-c1ccc(Cl)c(Cl)c1 | i
30 | COc1ccc(C)cc1NC(=O)CN(c1ccc(F)c(Cl)c1)S(C)(=O)=O | i

Structures shown so far that contain a thiophene ring, fused or not, in the order listed:
no. | SMILES | ID4 SMM
13 | CCc1ccccc1NC(=O)Cn1cnc2scc(-c3ccc(OC)cc3)c2c1=O | i
21 | COc1ccc(Cl)cc1NC(=O)CSc1nc2sccc2c(=O)[nH]1 | i
27 | COC(=O)c1c(NC(=S)NCc2ccco2)sc2c1CCC2 | i

Rewritten as labelled records: three of the compounds above
(3) COc1ccc(-c2cnc3c(c2)C(=O)N([C@H](C)CO)C[C@@H](C)[C@H](CN(C)Cc2cccnc2)O3)cc1
  ID4 SMM = i
(4) COc1ccc(OCC(=O)Nc2cc(OC)ccc2NC(=O)c2ccco2)cc1
  ID4 SMM = i
(5) CCCC#Cc1ccc2c(c1)O[C@@H](CN(C)C(=O)CC1CC1)[C@H](C)CN([C@H](C)CO)S2(=O)=O
  ID4 SMM = i

Next results
no. | SMILES | ID4 SMM
31 | O=C(CC1(O)C(=O)N(Cc2ccccc2)c2ccc(Cl)cc21)c1ccc2c(c1)OCCO2 (stereo not drawn) | i
32 | COC(=O)C[C@@H]1CC[C@H](NC(=O)c2ccccc2)[C@@H](CO)O1 | i
33 | Cc1cc(Cl)ccc1NC(=O)CNS(=O)(=O)c1ccc(Br)cc1 | i
34 | CCCNC(=O)N[C@H]1C=C[C@@H](CC(=O)N2CCN(C)CC2)O[C@@H]1CO | i
35 | C[C@H](CO)N1C[C@H](C)[C@@H](CN(C)Cc2ccncc2)Oc2ncc(/C=C/c3ccccc3)cc2C1=O | i
36 | C[C@H](NC(=O)C[C@@H]1C=C[C@@H](NC(=O)Cc2ccccn2)[C@@H](CO)O1)c1ccccc1 | i
37 | C[C@H](CO)N1C[C@H](C)[C@@H](CN(C)C(=O)CN(C)C)Oc2ncc(C#CC(C)(C)O)cc2C1=O | i
38 | CC(C)C#Cc1ccc2c(c1)O[C@H](CN(C)C(=O)c1ccccc1)[C@@H](C)CN([C@@H](C)CO)S2(=O)=O | i
39 | COc1ccc(NC(=O)COc2ccccc2CO)cc1 | i
40 | CC(=O)N(C)C[C@H]1Oc2ncc(C#Cc3ccccc3)cc2C(=O)N([C@@H](C)CO)C[C@H]1C | i
41 | CCCN(C)C[C@H]1Oc2ncc(C#CC3(O)CCCC3)cc2C(=O)N([C@H](C)CO)C[C@H]1C | i
42 | Nc1nnc(SCC(=O)Nc2ccccc2Br)s1 | i
43 | C[C@H]1CN([C@@H](C)CO)C(=O)c2cc(Br)cnc2O[C@H]1CN(C)Cc1ccncc1 | i
44 | C[C@H]1CN([C@@H](C)CO)C(=O)c2cc(-c3ccccc3F)cnc2O[C@H]1CN(C)Cc1cccc(F)c1 | i
45 | CC(C)NC(=O)N(C)C[C@H]1OCc2ccccc2-c2ccccc2C(=O)N([C@@H](C)CO)C[C@H]1C | i
46 | Cc1ccc(N(CC(=O)Nc2cc(Cl)ccc2C)S(C)(=O)=O)cc1C | i
47 | O=C(C[C@@H]1CC[C@@H](NC(=O)c2cccc(F)c2)[C@@H](CO)O1)NCc1ccccc1 | i
48 | C[C@H](CO)N1C[C@H](C)[C@@H](CN(C)C)Oc2ncc(-c3cccnc3)cc2C1=O | i
49 | O=C(CSc1nnnn1-c1ccccc1)Nc1ccc(Oc2ccccc2)cc1 | i
50 | Cn1nnnc1SCC(=O)Nc1ccc(C#N)cc1 | i
51 | COCc1cc(C)n(CC(=O)Nc2cc(Cl)ccc2OC)c(=O)c1C#N | i
52 | COc1ccc(NC(=O)CSc2nc3ccccc3c(=O)n2-c2ccc(C)cc2)c(OC)c1 | i
53 | C[C@@H]1CN([C@H](C)CO)C(=O)c2cc(C#CC3(O)CCCC3)cnc2O[C@@H]1CN(C)CC1CC1 | i
54 | COc1ccc(C(=O)NCCCn2ccnc2)cc1[N+](=O)[O-] | i
55 | C[C@@H]1CN([C@H](C)CO)C(=O)c2cc(C#Cc3ccccn3)cnc2O[C@H]1CN(C)Cc1ccccc1 | i
56 | C[C@@H]1CN([C@@H](C)CO)C(=O)c2cc(Br)cnc2O[C@@H]1CN(C)C(=O)C1CCCCC1 | i
57 | COc1ccc2nc(Sc3c([N+](=O)[O-])nc(C)n3Cc3ccccc3)[nH]c2c1 | i
58 | CC(=O)c1cccc(NC(=O)CSc2nc(C)cc(=O)[nH]2)c1 | i
59 | Cc1nc(SC(C)C(=O)Nc2ccc(Cl)cc2)n[nH]1 (stereo not drawn) | i
60 | C[C@@H]1CN([C@@H](C)CO)C(=O)c2cc(/C=C/c3ccccc3)cnc2O[C@@H]1CN(C)C | i
61 | CCOC(=O)c1c(NC(=O)c2nc3ncccn3n2)sc2c1CCCC2 | i
62 | CCCC#Cc1ccc2c(c1)O[C@@H](CN(C)Cc1ccccc1)[C@@H](C)CN([C@H](C)CO)S2(=O)=O | i
63 | COc1c(S(=O)(=O)n2c(C)nc3ccccc32)ccc(Cl)c1Cl | i
64 | COCCOC(=O)N1C(=O)[C@@]2(c3cc(C#CCC(C(=O)OC)C(=O)OC)ccc31)[C@H](c1ccccc1OCCO)N1[C@H](c3ccccc3)[C@H](c3ccccc3)OC(=O)[C@H]1[C@@H]2C(=O)Nc1nc2ccccc2s1 | i
65 | CCc1cccc(NC(=O)CSc2c(C)n[nH]c2C)c1 | i
66 | Nc1nc(SCC(=O)Nc2cccc(C(F)(F)F)c2)n[nH]1 | i
67 | CC(C)CC#Cc1ccc2c(c1)O[C@H](CN(C)C)[C@@H](C)CN([C@H](C)CO)S2(=O)=O | i
68 | N#Cc1ccc(NC(=O)CSc2ccc([N+](=O)[O-])cn2)cc1 | i
69 | O=C(/C=C/c1ccccc1)O[C@@H]1O[C@H](CO)[C@@H](O)[C@H](O)[C@H]1O | i
70 | Cc1ccc(S(=O)(=O)NC(C)(C)CSc2nncn2C)cc1 | i
71 | C/C=C/c1ccc2c(c1)O[C@@H](CN(C)C)[C@@H](C)CN([C@@H](C)CO)S2(=O)=O | i
72 | COc1c(O)cc2occ(-c3ccccc3O)c(=O)c2c1O | i
73 | COc1ccc(C#Cc2cnc3c(c2)C(=O)N([C@H](C)CO)C[C@H](C)[C@@H](CN(C)C)O3)cc1 | i
74 | COc1ccc2nc(SCC(=O)Nc3ccc(F)c(Cl)c3)[nH]c2c1 | i
75 | CCNC(=O)C[C@@H]1C=C[C@@H](NC(=O)C2CCC2)[C@@H](CO)O1 | i
76 | COc1cccc(OCc2nc(-c3ccc(OC)c(OC)c3)no2)c1 | i
77 | C[C@@H](NC(=O)C[C@@H]1CC[C@H](NC(=O)CN2CCOCC2)[C@@H](CO)O1)c1ccccc1 | i
78 | O=C(CSc1nnc(-c2ccncc2)o1)c1cc2ccccc2oc1=O | i
79 | OC(CNCc1ccc(Cl)cc1Cl)Cn1c(-c2ccc(F)cc2)cc2ccccc21 (stereo not drawn) | i
80 | O=C(O)C[C@H]1C[C@H]2c3cc(NC(=O)Nc4ccccc4F)ccc3O[C@H]2[C@H](CO)O1 | i

Further results.
no. | SMILES | ID4 SMM
81 | C[C@@H]1CN([C@@H](C)CO)C(=O)c2cc(-c3cccnc3)cnc2O[C@@H]1CN(C)C | i
82 | O=C(CSc1n[nH]c(-c2ccc(Cl)cc2Cl)n1)Nc1cc(C(F)(F)F)ccc1Cl | i
83 | C[C@H](CO)N1C[C@H](C)[C@@H](CN(C)Cc2ccncc2)Oc2ncc(Br)cc2C1=O | i
84 | C[C@@H]1CN([C@H](C)CO)C(=O)c2cc(-c3ccc(C#N)cc3)cnc2O[C@H]1CN(C)Cc1ccncc1 | +
85 | C[C@H](O)C#Cc1cnc2c(c1)C(=O)N([C@@H](C)CO)C[C@H](C)[C@H](CN(C)CC1CCCCC1)O2 | i
86 | COC(=O)C[C@@H]1CC[C@@H](NS(=O)(=O)c2ccc(OC)cc2)[C@H](CO)O1 | i
87 | O=C(NCCCn1ccnc1)c1ccc(Cl)c(Cl)c1 | i
88 | Nc1nnc(SC2c3cccc4cccc(c34)C2NS(=O)(=O)c2ccc(Cl)cc2)s1 (stereo not drawn) | i
89 | Cc1c(Br)c([N+](=O)[O-])nn1CC(=O)Nc1sc2c(c1C#N)CCC2 | i
90 | O=C(CSc1nnc(-c2ccccc2O)n1-c1ccccc1)Nc1cccc(C(=O)O)c1 | i
91 | CC(=O)N[C@@H]1C=C[C@H](CC(=O)NCC2CCCCC2)O[C@H]1CO | i
92 | C[C@@H]1CN([C@@H](C)CO)C(=O)c2cc(C#CCN(C)C)cnc2O[C@H]1CN(C)C(=O)c1cccc(F)c1 | i
93 | CC(=O)N(C)c1ccc(OCC(O)Cn2c3ccc(Cl)cc3c3cc(Cl)ccc32)cc1 (stereo not drawn) | i
94 | COc1ccc(-c2noc(CN(C)S(=O)(=O)c3ccccc3)n2)cc1OC | i
95 | CC(C(=O)Nc1ccccc1Br)N(c1ccc(Cl)cc1)S(C)(=O)=O (stereo not drawn) | i
96 | C[C@@H]1CN([C@@H](C)CO)S(=O)(=O)c2ccc(-c3ccc(F)cc3)cc2O[C@H]1CN(C)C(=O)C1CC1 | i
97 | CCCC1CCC(C(=O)NC(C(=O)O)C(C)C)CC1 (stereo not drawn) | i
98 | CC(C)(C)c1ccc(OCC(=O)NCc2ccccn2)c(Br)c1 | i
99 | C[C@H]1CN([C@@H](C)CO)C(=O)c2cc(C#CC3(O)CCCC3)cnc2O[C@@H]1CN(C)C(=O)Cc1cccnc1 | i
100 | CCC(Sc1nnc(-c2ccc([N+](=O)[O-])cc2)n1C)C(=O)Nc1ccc(Br)cc1 (stereo not drawn) | i
101 | C[C@@H](NC(=O)C[C@@H]1C[C@H]2c3cc(NC(=O)CN(C)C)ccc3O[C@H]2[C@H](CO)O1)c1ccccc1 | i
102 | COc1cccc(CN2CCc3[nH]c(=S)[nH]c(=O)c3C2)c1 | i
103 | Cc1ccc(-n2c(SCC(=O)Nc3ccc4c(c3)OCCO4)nnc2-c2ccco2)cc1 | i
104 | C[C@H](CO)N1C[C@H](C)[C@H](CN(C)Cc2ccccc2F)Oc2ncc(C3=CCCC3)cc2C1=O | i
105 | COc1ccccc1NC(=O)c1c(NC(=O)Cc2ccc([N+](=O)[O-])cc2)sc(C)c1C | i
106 | C[C@@H]1CN([C@@H](C)CO)C(=O)c2cc(C#CCN(C)C)cnc2O[C@H]1CN(C)C(=O)Cc1ccccc1 | i
107 | O=C(CSc1nnc(CN2CCOCC2)n1-c1ccccc1)N1CCc2ccccc21 | i
108 | CCc1ccc(OCC(=O)Nc2cc(OC)ccc2OC)c(Br)c1 | i
109 | CC(C)C#Cc1ccc2c(c1)O[C@H](CN(C)CC1CCOCC1)[C@H](C)CN([C@@H](C)CO)S2(=O)=O | i
110 | C[C@@H]1CN([C@@H](C)CO)S(=O)(=O)c2ccc(-c3ccc(F)cc3)cc2O[C@H]1CN(C)C | i
